# Bioassay records: PubChem, several laboratories
# Mtb hypoxia inh: reduces hypoxia-regulated biosensor signal in M. tuberculosis. M. tuberculosis hypoxia-regulated fluorescent reporter, fluorescence. fluorescence inhibition, % (concentration not given with the values). hit rate 0.1% among 300,000;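 active = 35 to 45% if threefold the growth effect, above 45% if 1.5-fold the growth effect; inactive = the rest, general growth blockers included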;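 also: wells of about 50 µL received 100 nL stock; 0% = vehicle wells and 100% = reference inhibitor wells; whole bacteria with a GFP reporter of the hypoxia response; strong numbers were not always called active; many hits fall short of the cut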
# Bead autofluor: compound fluorescence in toxin protease inhibitor counterscreen; compound autofluorescence counterscreen, microsphere flow cytometry; hits give high values; fluorescence intensity (no concentration beside the values); hit rate 3.1% among 360,000; AID 624483;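 active = at least 3 SD above the mean of all compounds, about 16000 in these data; inconclusive = too few beads counted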;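 also: 100 nL of 1 mM stock went into each well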
# ugtP null kill: compounds lethal to S. aureus RN4220 ugtP deletion mutant | growth inhibition, % (no concentration beside the values) | OD600 growth, 16 h; some inactives read as strong as hits | AID 1259309 | hit rate 0.54% among 330,000;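 active = z-score under -3 and OD600 up to 0.15 on both plates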;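 also: plate controls were untreated wells for no effect and antibiotic for full effect; wells of about 80 µL received 100 nL stock; the first replicate is given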
# PrP UTR inh: inhibition of PrP 5' UTR reporter expression | inhibition, % (no concentration beside the values) | hit rate 0.35% among 340,000 | cell-based PrP 5' UTR mRNA reporter, plate reader;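 active = every replicate at 50% or more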;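 also: 0 = median of the neutral control wells; tested in H4 reporter cells; numbers are from one replicate; inactives centre near -14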
# RN4220 kill: S. aureus RN4220 growth inhibition; OD600, 16 h; inhibition, % (concentration not given with the values); hit rate 0.33% among 330,000;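 active = z-score of -3 or lower and OD600 up to 0.18 on both plates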;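 also: plate controls were untreated cells for no effect and reference antibiotic for full effect; stock transfer was 100 nL into about 80 µL; one replicate is shown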
# BJeLR viability: BJeLR cell viability loss | inhibition, % (no concentration beside the values) | AID 1554 | hit rate 0.17% among 300,000 | BJeLR (HRASV12) viability, CellTiter-Glo ATP luminescence, 48 h; reference of the scale not given here;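 active = replicate mean above 50%; inconclusive = above 50% but judged a plate artefact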;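 also: 50 nL library stock added to about 25 µL; numbers are from one replicate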
# Mtb hypoxia inh growth: further read-out of Mtb hypoxia inh, marked with its call; growth inhibition, %; measured here: M. tuberculosis growth (absorbance);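 0% = vehicle and 100% = reference antibiotic; read after six days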
# The depositor's hits bear a star; ? = inconclusive; · = no result given.
SMILES,Mtb hypoxia inh,Mtb hypoxia inh growth,Bead autofluor,ugtP null kill,PrP UTR inh,RN4220 kill,BJeLR viability
COc1ccc(C(=O)Nc2cccc(/C=C(\CCC(=O)O)c3nc4ccccc4s3)c2)cc1,9,14,4348,34,-12,31,6
COc1cc2cc(CCCOC(=O)c3ccco3)oc(=O)c2cc1OC,9,10,4034,2,-14,4.3,·
Cc1cc(OCC(=O)OCC(=O)Nc2cc(C(F)(F)F)ccc2N2CCOCC2)ccc1Cl,13,13,2369,1,-18,3.0,7
CN(C)c1ccc(C=C(C(=O)c2ccc(Cl)cc2Cl)n2cncn2)cc1,17,2,·,-5,·,7.9,·
Nc1ccc(N=Nc2ccccc2)cc1,-14,-8,4250,-3,-51,8.4,-6
CCCCn1c(N)c(N(CCOC)C(=O)c2cc(-c3ccccc3)nc3ccccc23)c(=O)[nH]c1=O,7,-2,4977,5,-23,4.7,3
COc1ccc(F)cc1C(=O)COC(=O)c1n[nH]c(=O)c2ccccc12,-10,-12,2809,10,-17,-1.2,·
CCCCc1nc2cc(C(=O)NCCc3cnn(C)c3)ccc2o1,7,-3,6103,1,-38,1.3,-8
COc1ccc(C(C)(C)C)cc1NC(=O)c1cncc(Br)c1,·,·,2594,-1,-20,6.1,1
O=C(c1ccc(N2CCCC2)c([N+](=O)[O-])c1)N1CCN(CCO)CC1,11,-2,4903,-2,-19,3.5,6
CCCNC(=O)c1cccc(COCC(F)(F)F)c1,22,18,3090,3,-12,1.1,-1
Cc1cc(-n2nc(C)cc2C)nc(N)n1,6,7,4445,5,-16,2.8,-8
COc1ccc(C(C(=O)NC2CCCCC2)N(C(=O)CCl)c2ccc(OC)cc2)cc1 (stereo not drawn),3,9,8580,5,-22,-2.8,118*
COc1cc(NC(=S)N2CCN(Cc3ccccc3)CC2)cc(OC)c1,6,5,2419,-3,2,2.1,3
Cc1cccc(C2=NN(c3ccccc3)[C@@H](C(=O)N3CCOC3=O)[C@@H]2c2ccccc2)c1,1,10,3769,26,-8,-4.8,·
CCn1c(CNC(=O)Cc2ccc(OC)cc2)nnc1SCCOc1ccccc1,4,2,5128,1,-12,-3.2,-6
Cc1cc(C)c(Cn2cnc3ccccc32)c(C)c1,-11,-4,3594,-8,-18,-6.7,-2
CCOCCCNC(=O)CN1C(=O)COc2ccc(S(=O)(=O)N3CCCC3)cc21,6,-10,5663,-1,-10,4.8,10
Cc1cccc(NCc2n[nH]c(=S)n2-c2ccccc2)c1,8,5,2388,-6,2,5.0,-2
O=C(CN1CCN(c2ccc(F)cc2)CC1)Nc1nnc(-c2ccccc2)s1,·,·,3131,9,-9,0.6,-4
CCCCCCSc1ccc([C@H]2N[C@@](C)(C(=O)OC)[C@H]3C(=O)N(CC)C(=O)[C@@H]23)cc1,·,·,3777,·,-2,·,8
CC1=NCCN1S(=O)(=O)c1c(C(C)C)cc(C(C)C)cc1C(C)C,3,2,3511,4,-9,11,-11
CCC(Oc1ccccc1)C(=O)Nc1nnc(C(F)(F)F)s1 (stereo not drawn),·,·,3559,20,-18,23,·
CCOC(=O)c1cccc(Nc2nc(-c3cccnc3)nc3ccccc23)c1,·,·,4977,36,4,14,1
CCC(OC(=O)c1ccco1)C(=O)NCc1ccc(C)cc1 (stereo not drawn),3,4,11158,5,-17,1.2,3
CCOc1ncccc1C(=O)OCC(=O)Nc1ccc2c(c1)OCCO2,-11,-2,3470,-7,-4,-5.8,·
CCOC(=O)c1c(NC(=O)CSc2nnc(C)c(=O)[nH]2)sc2c1CCC2,·,·,3686,5,-13,9.2,10
COc1ccc(-c2cn3ccccc3n2)cc1,15,6,4272,1,-45,5.6,28
CCCNC(=O)N1CCN(c2ncccn2)CC1,15,10,2976,-6,-10,-10.0,-1
CCOC(=O)c1cnc(SCC(=O)Nc2cc(OC)ccc2OC)nc1N,·,·,2459,-1,-32,-7.2,2

# Random excerpt: four entries already listed
SMILES,Mtb hypoxia inh,Mtb hypoxia inh growth,Bead autofluor,ugtP null kill,PrP UTR inh,RN4220 kill,BJeLR viability
CCOC(=O)c1cccc(Nc2nc(-c3cccnc3)nc3ccccc23)c1,·,·,4977,36,4,14,1
CCn1c(CNC(=O)Cc2ccc(OC)cc2)nnc1SCCOc1ccccc1,4,2,5128,1,-12,-3.2,-6
CCOC(=O)c1c(NC(=O)CSc2nnc(C)c(=O)[nH]2)sc2c1CCC2,·,·,3686,5,-13,9.2,10
CC1=NCCN1S(=O)(=O)c1c(C(C)C)cc(C(C)C)cc1C(C)C,3,2,3511,4,-9,11,-11

# The main list resumes; the 4 compounds before the break are reprinted first.
SMILES,Mtb hypoxia inh,Mtb hypoxia inh growth,Bead autofluor,ugtP null kill,PrP UTR inh,RN4220 kill,BJeLR viability
CCOC(=O)c1c(NC(=O)CSc2nnc(C)c(=O)[nH]2)sc2c1CCC2,·,·,3686,5,-13,9.2,10
COc1ccc(-c2cn3ccccc3n2)cc1,15,6,4272,1,-45,5.6,28
CCCNC(=O)N1CCN(c2ncccn2)CC1,15,10,2976,-6,-10,-10.0,-1
CCOC(=O)c1cnc(SCC(=O)Nc2cc(OC)ccc2OC)nc1N,·,·,2459,-1,-32,-7.2,2
C/C(C=Nn1c(C)n[nH]c1=S)=C/c1ccccc1,11,21,·,7,·,5.8,·
O=C(CN1CCC(O)(c2ccc3c(c2)OCO3)CC1)OC1CCCCC1,10,19,7488,7,-10,4.4,5
O=S(=O)(O)CCS,5,8,5739,2,-14,4.6,3
Cc1ccc(F)cc1NC(=O)c1ccc(OCC2CCCO2)cc1 (stereo not drawn),14,2,·,10,-45,5.9,·
COc1cccc(N2CC34C=CC(O3)C(C(=O)O)C4C2=O)c1 (stereo not drawn),4,6,9219,-8,-25,4.1,-6
COc1ccc(N(CC(=O)NC2CCCC2)C(=O)Cn2nnc(-c3ccc(OC)c(OC)c3)n2)c(OC)c1,6,6,3859,16,-8,0.0,0
COc1ccc(NC(C)C(=O)Nc2cc(C(F)(F)F)ccc2N2CCOCC2)c(OC)c1 (stereo not drawn),8,5,2514,12,-15,1.3,-2
C/C(=N\NC(=O)C(=O)Nc1ccc(C)c(Cl)c1)c1ccncc1,·,·,2251,·,-14,·,-11
COc1ccc([C@H]2CC(=O)C=C(c3ccc4c(c3)OCO4)C2)cc1,0,5,3982,-1,-13,-15,·
Cc1sc2ncnc(N3CCC(C(=O)Nc4ccc(Cl)cc4Cl)CC3)c2c1C,-5,11,?,-4,-7,1.2,4
COc1ccc(NC(=S)NC2CCCC2)c(OC)c1,8,-8,3317,6,-10,2.7,-3
CC(=O)OC1CCC2(C=NO)C(=CCC3C4CCC(=O)C4(C)CCC32)C1 (stereo not drawn),4,0,·,5,·,5.5,·
CC(=O)/C(=N\Nc1cccc(Cl)c1)Sc1cccc2cccnc12,·,·,9593,·,-12,·,7
CCOc1ccc(OCC)c(NC(=O)CCS(=O)(=O)c2ccc(C)cc2)c1,4,2,3840,2,-2,2.3,0
C/C(=N\NC(=O)c1cccc([N+](=O)[O-])c1)c1ccco1,·,·,?,·,-13,·,7

# 5 of these compounds in another layout.
molecule | Mtb hypoxia inh | Mtb hypoxia inh growth | Bead autofluor | ugtP null kill | PrP UTR inh | RN4220 kill | BJeLR viability
CCn1c(CNC(=O)Cc2ccc(OC)cc2)nnc1SCCOc1ccccc1 | 4 | 2 | 5128 | 1 | -12 | -3.2 | -6
CCCNC(=O)c1cccc(COCC(F)(F)F)c1 | 22 | 18 | 3090 | 3 | -12 | 1.1 | -1
CN(C)c1ccc(C=C(C(=O)c2ccc(Cl)cc2Cl)n2cncn2)cc1 | 17 | 2 | · | -5 | · | 7.9 | ·
COc1ccc(NC(=S)NC2CCCC2)c(OC)c1 | 8 | -8 | 3317 | 6 | -10 | 2.7 | -3
COc1ccc([C@H]2CC(=O)C=C(c3ccc4c(c3)OCO4)C2)cc1 | 0 | 5 | 3982 | -1 | -13 | -15 | ·

# Returning to the listing with the two entries that preceded the break.
SMILES,Mtb hypoxia inh,Mtb hypoxia inh growth,Bead autofluor,ugtP null kill,PrP UTR inh,RN4220 kill,BJeLR viability
CCOc1ccc(OCC)c(NC(=O)CCS(=O)(=O)c2ccc(C)cc2)c1,4,2,3840,2,-2,2.3,0
C/C(=N\NC(=O)c1cccc([N+](=O)[O-])c1)c1ccco1,·,·,?,·,-13,·,7
CCOC(=O)c1c(NC(=O)c2cccs2)sc(C(=O)N(C)C)c1C,·,·,2966,1,0,1.3,-8
CCOc1ccc(N2C(=O)NC(=O)/C(=C\c3ccc(N4CCCCC4)o3)C2=O)cc1,·,·,3401,·,-15,·,19
CC(=O)Nc1sc(C)c(C)c1C(=O)OCC(=O)N(C)C1CCS(=O)(=O)C1 (stereo not drawn),4,-1,2200,12,-50,6.8,-7
CCN(CCS(=O)(=O)c1ccc(Cl)cc1)C(=O)Nc1ccc(Cl)cc1,8,4,6232,-1,-17,0.9,5
CCOc1ccc(OCCC(=O)OCC(=O)c2c(N)n(C)c(=O)n(C)c2=O)cc1,3,6,?,7,-20,-0.1,-7
Cc1ccc(-c2ccc(C(=O)O)o2)cc1Cl,0,-8,4609,-7,-4,2.4,-1
Cc1nnc(SCC(=O)N2CCCC(N3CCN(c4ccc(F)cc4)CC3)C2)o1 (stereo not drawn),9,4,5770,-1,-23,0.2,2
Cc1cc(C)nc(SCCn2c(N3CCOCC3)nc3c2c(=O)[nH]c(=O)n3C)n1,-10,4,4051,7,-16,0.9,5
Cc1ccc(NC(=O)C(C)OC(=O)COc2cccc(C(F)(F)F)c2)cc1 (stereo not drawn),-6,-3,3390,-3,-9,1.0,·
N#Cc1ccc(Oc2nc(C(N)=O)cc(-c3ccccc3)n2)cc1,4,6,24851*,-1,-15,2.7,-11
CCCCCC(=O)NN=C(C)c1ccc(Cl)cc1,4,11,·,-3,·,-3.4,·
CSc1ccccc1C(=O)NC(C)c1ccc(-n2ccnc2)cc1 (stereo not drawn),0,3,5919,11,-29,-7.0,10
CCN(CC)C1CCN(C(=O)c2cc(COc3ccc(-n4cncn4)cc3)on2)C1 (stereo not drawn),-3,-6,4421,9,-1,5.5,1
NNc1nc(N)c2c(n1)-c1ccccc1CC21CCCC1,14,2,1777,-11,-7,13,2
CC(Sc1nc(C(C)(C)C)cc(-c2ccccc2)c1C#N)C(=O)Nc1ccccc1 (stereo not drawn),13,3,2413,1,-22,3.3,15
O=c1c2ccccc2nc(-c2ccccc2)n1CCN1CCOCC1,5,12,4294,0,3,2.3,2
COc1ccccc1NN=C(C#N)C(=N)N1CCOCC1,-7,0,·,4,·,1.9,·
Cc1nnc(SC(C)C(=O)Nc2ccc(Cl)cc2Cl)[nH]c1=O (stereo not drawn),-3,-2,3005,12,-14,2.4,·
O=c1sc2ccccc2n1COc1ccc(Cl)cc1,3,1,3334,2,-38,0.8,-2
N#Cc1ccc(S(=O)(=O)NC2CCN(Cc3ccccc3)CC2)cc1,17,10,4899,12,-5,1.8,-7
Cc1c(CC(=O)NCC(=O)O)c(=O)oc2cc3occ(-c4ccccc4)c3cc12,9,-8,3595,2,-16,-2.7,-7
COc1ccc(CN2CC(C(=O)NCCCN3CCN(Cc4ccccc4)CC3)CC2=O)cc1 (stereo not drawn),4,11,2522,2,-9,-1.7,0
CCOC(=O)CCCNC(=O)COC(=O)c1cc(Br)c(Br)s1,6,5,4224,4,-18,4.4,2
Cc1ccc(C(=O)Nc2cccc([N+](=O)[O-])c2)cc1S(=O)(=O)Nc1cccc(C(=O)O)c1,6,0,3554,94*,-13,27,7
COc1ccc2cc(Br)ccc2c1CC(=O)N(C)C,-1,4,4920,3,-6,5.4,11
CCC(Sc1ncccc1C(=O)Oc1cccc([N+](=O)[O-])c1)C(=O)Nc1ccccc1OC (stereo not drawn),5,12,1982,0,-5,-5.9,-8
Cc1ccsc1C(=O)NNC(=S)NCC(C)C,0,2,16066,10,2,6.0,-5
CSCCOC(=O)COc1ccc(/C=N/NC(=O)c2nn(C)cc2Cl)cc1,·,·,2296,·,-10,·,-1
O=C(NCCC1=CCCCC1)c1cnccn1,·,·,4076,13,-60,0.6,7
COc1cccc(C=NNc2ncnc3c2[nH]c2ccc(C)cc23)c1OC,-5,-4,·,-22,·,-4.0,·
Cc1ccc(Nc2nnc(-c3ccc4c(c3)OCO4)o2)c(C)c1,-2,7,3663,-17,-48,3.3,-2
CCOC(=O)C1(Cc2ccccc2)CCCN(CCO)C1 (stereo not drawn),2,2,4846,2,-64,1.7,-4
